# RanGTP-Impb inh = inhibitors of RanGTP-importin-beta interaction, primary screen, biochemical, FRET, CFP-Ran, YFP-importin-beta, homogeneous | actives 1.1% (n = 300,000) | inhibition, % (no concentration beside the values) | cell-free CFP-Ran/YFP-importin-beta FRET ratio | AID 2216;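 active means most replicates above 15%; inconclusive means exactly half above 15%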;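 further: 0% = DMSO wells and 100% = Ran loaded with GDP instead of GTP; wells of about 40 µL received 100 nL stock; the first replicate is given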
# E coli growth = blocks Escherichia coli growth; OD600, 23 h; stronger effect = lower value; OD600 absorbance (no concentration beside the values); actives 0.21% (n = 330,000); AID 1053175;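 active means OD600 absorbance below the run mean of sample wells minus 3.6 SD, in any replicate, cut at about 0.56 in these data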;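 further: stock transfer was 300 nL into about 60 µL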
# HNF4A DNA FP = change in binding of human HNF4 alpha to DNA | HNF4a-FITC DNA binding, fluorescence polarization, 1 h | activity change, % at 10 µM | actives 0.3% (n = 360,000) | AID 1224865; in the data active means activity change above about 30%, passing the limit was not always enough;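 further: controls were the assay level and a saturating level of protein; the project sought stronger binding though the title names inhibitors; some compounds called inactive have numbers as strong as hits; positive values seem to mean higher polarization but the record does not say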
# FGF22 binding = shifts melting point of recombinant human FGF22; Q9HCT0; calls only at 9.99 µM; recombinant FGF22 thermal shift, SYPRO orange fluorescence; percent of sucrose octasulfate shift, DMSO zero; actives 1.5% (n = 340,000);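 active means melting point raised past a set limit in the mean and every replicate; inconclusive means no clear call; three in four hits are not shown here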
# Target sequence (Q9HCT0 whole entry, looked up): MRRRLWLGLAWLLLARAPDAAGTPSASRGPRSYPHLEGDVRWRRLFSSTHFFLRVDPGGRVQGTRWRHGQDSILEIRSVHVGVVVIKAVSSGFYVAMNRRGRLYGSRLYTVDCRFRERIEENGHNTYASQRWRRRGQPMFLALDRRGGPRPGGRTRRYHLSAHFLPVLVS
# AF4-AF9 inh = blocks AF4 peptide binding to human AF9. P42568. AlphaScreen, biotin-AF4 peptide binding to FLAG-AF9. inhibition, % at 10 µM. actives 0.47% (n = 350,000). AID 651704;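 active means every replicate reaching a set inhibition limit, whatever the replicate mean, cut at about 25% in these data; inconclusive means mean inhibition reaches that limit but some replicates miss it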;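 further: 0% = plate neutral control median and 100% = total signal loss; the record names both 10 and 1 µM as test concentration; the first replicate is given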
# Target sequence (P42568 whole entry, looked up): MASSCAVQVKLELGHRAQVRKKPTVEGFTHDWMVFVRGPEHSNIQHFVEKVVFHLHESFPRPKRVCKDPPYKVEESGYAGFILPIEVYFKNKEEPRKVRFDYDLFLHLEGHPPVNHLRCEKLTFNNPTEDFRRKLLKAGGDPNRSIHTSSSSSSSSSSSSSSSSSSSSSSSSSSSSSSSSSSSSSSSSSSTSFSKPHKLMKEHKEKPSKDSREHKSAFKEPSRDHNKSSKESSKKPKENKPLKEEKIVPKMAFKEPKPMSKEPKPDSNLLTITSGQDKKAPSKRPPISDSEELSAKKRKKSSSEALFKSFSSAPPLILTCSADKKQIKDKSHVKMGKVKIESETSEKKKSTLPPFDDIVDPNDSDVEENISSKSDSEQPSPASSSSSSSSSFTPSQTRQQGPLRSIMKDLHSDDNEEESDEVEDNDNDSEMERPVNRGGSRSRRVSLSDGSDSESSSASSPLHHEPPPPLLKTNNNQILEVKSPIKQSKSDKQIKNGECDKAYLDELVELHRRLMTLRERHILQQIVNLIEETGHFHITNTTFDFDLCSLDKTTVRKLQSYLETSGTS
# Vif A3G = inhibitors of Vif binding to APOBEC3G peptide, primary screen, biochemical, TR-FRET, GST-Vif 1-94, biotin-A3G peptide, dose response retest (AID 1117319); TR-FRET GST-Vif / biotin-A3G peptide binding; higher % means a stronger effect; test concentration not given here; strong numbers were not always called active; actives 0.57% (n = 260,000); inhibition, %, or IC50 in µM where a hit was titrated;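 active means above the screen mean plus three standard deviations and confirmed in dose response; inconclusive means results disagree or hit not tested in dose response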;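 further: Vif residues 1-94 fused to GST binding biotinylated APOBEC3G peptide 110-148; 0% = full assay without inhibitor and 100% = GST in place of GST-Vif; retest series ran down from 100 µM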
# UCH37 DUB inh = blocks the human deubiquitinase UCH37. Q9Y5K5. purified proteasome/UCH37, Ub-AMC cleavage fluorescence. inhibition, % (concentration not given with the values). actives 0.33% (n = 330,000);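 active means mean of two replicates above 20%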;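 further: 0% = compound-free wells with enzyme and 100% = wells lacking proteasome; stock transfer was 100 nL into about 20 µL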
# Target sequence (Q9Y5K5 whole entry, looked up): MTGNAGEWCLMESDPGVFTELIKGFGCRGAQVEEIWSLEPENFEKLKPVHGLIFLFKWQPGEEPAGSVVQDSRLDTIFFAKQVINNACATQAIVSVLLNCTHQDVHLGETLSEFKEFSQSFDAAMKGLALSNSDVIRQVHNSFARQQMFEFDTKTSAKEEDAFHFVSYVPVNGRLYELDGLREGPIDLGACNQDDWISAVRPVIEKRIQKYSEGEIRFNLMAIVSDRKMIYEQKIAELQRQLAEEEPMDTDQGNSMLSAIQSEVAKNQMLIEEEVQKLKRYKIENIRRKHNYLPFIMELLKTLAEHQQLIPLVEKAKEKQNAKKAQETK
#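 assay system = human UCH37 enzyme supplied as purified proteasome complex | amount = proteasome at 0.15 nM in the dispensed enzyme solution | schedule = 30 min compound-proteasome preincubation then 25 min substrate reaction, room temperature | measured by = fluorescence, ex 355 nm, em 460 nm | benchmarks = no-proteasome wells (full inhibition) and compound-free wells (no inhibition)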
# Active calls of the source: *; i = inactive; ? = inconclusive; / = not tested or not shown; & = joins results of further samples. An excerpt; count on the stated rates, not on these rows.
# The first 4 entries as a preview:
E coli growth	UCH37 DUB inh	HNF4A DNA FP	AF4-AF9 inh	FGF22 binding	Vif A3G	RanGTP-Impb inh	Molecule
0.67	3.6	-0.5	-1.7&-1.0	i	7%	/	Cc1noc(C)c1S(=O)(=O)Nc1ccc2c(c1)C(=O)N([C@H](C)CO)C[C@H](C)[C@@H](CN(C)C(=O)Nc1ccc(C(F)(F)F)cc1)O2
0.69	-0.5	1.1	-2.3	i	-1%	0.8	CC(=O)Nc1ccc(C(=O)NCC(=O)OCc2ccccc2F)cc1
0.75	4.7	-1.1	/	/	-2%	-1.8	CCOC(=O)c1c(NC(=O)C(Sc2ccccc2)c2ccccc2)sc(C(N)=O)c1C (centres undefined)
0.73	1.8	-11	/	/	11%	-2.0	Cc1nnc(SCC(=O)NC(=O)NCc2ccco2)n1Cc1ccccc1

# The listing (from the top)
E coli growth	UCH37 DUB inh	HNF4A DNA FP	AF4-AF9 inh	FGF22 binding	Vif A3G	RanGTP-Impb inh	Molecule
0.67	3.6	-0.5	-1.7&-1.0	i	7%	/	Cc1noc(C)c1S(=O)(=O)Nc1ccc2c(c1)C(=O)N([C@H](C)CO)C[C@H](C)[C@@H](CN(C)C(=O)Nc1ccc(C(F)(F)F)cc1)O2
0.69	-0.5	1.1	-2.3	i	-1%	0.8	CC(=O)Nc1ccc(C(=O)NCC(=O)OCc2ccccc2F)cc1
0.75	4.7	-1.1	/	/	-2%	-1.8	CCOC(=O)c1c(NC(=O)C(Sc2ccccc2)c2ccccc2)sc(C(N)=O)c1C (centres undefined)
0.73	1.8	-11	/	/	11%	-2.0	Cc1nnc(SCC(=O)NC(=O)NCc2ccco2)n1Cc1ccccc1
0.69	5.9	3.8	11	i	/	-1.3	C=CCn1c(SCC(=O)N2CCOCC2)nc2sc(C)c(C)c2c1=O
/	/	2.2	1.8	i	/	/	OC(c1ccc(F)c(F)c1)c1ncc(-c2ccccc2F)[nH]1 (centres undefined)
/	/	4.3	2.0	i	/	/	CC(C)c1ccc(CC(=O)N2CCC2(C)C(=O)Nc2ccc3c(c2)OCO3)cc1 (centres undefined)
0.69	2.9	-2.9	/	/	1%	?	Cc1nc(N)nc(Nc2ccc(Cl)cc2)c1Br
0.67	1.0	2.4	1.1	i	4%	-3.5	COc1cc2c(cc1OC)C(=O)N(C)CC2
0.72	2.9	1.8	0.3	i	/	0.0	O=C(Nc1c2c(nn1-c1ccc(Cl)cc1)CS(=O)(=O)C2)c1ccccc1
0.69	3.3	5.4	-3.8	i	-19%	2.2	OCC1(CCOc2ccccc2)CCN(Cc2ccc3cccc(F)c3n2)CC1
0.7	1.9	3.1	-0.6	i	-10%	/	Cc1ccc(C(=O)NC(Cc2ccc(C(C)(C)C)cc2)C(=O)O)cc1 (centres undefined)
0.68	8.8	2.2	4.6	i	/	0.6	CC(=O)c1ccc(N2CCN(CC(O)COC(c3ccccc3)c3ccccc3)CC2)cc1 (centres undefined)
0.7	4.3	-0.2	-1.0	i	/	?	CCCn1nnnc1NCc1ccc(OC)cc1
0.67	4.7	-1.9	2.7	i	4%	0.1	O=C(c1cccc(F)c1)N1CCN(C2CCCCC2)CC1
0.68	-6.0	2.1	-1.9	i	/	8.0	CCCCN(C(=O)c1cc(=O)[nH]c2ccccc12)c1c(N)n(CCCC)c(=O)[nH]c1=O
0.7	5.8	13	0.4	i	/	5.3	CCCNC(=O)/C(C#N)=C1\N=C(NC(=O)c2ccco2)c2ccccc21
0.66	1.7	4.0	-0.7	i	/	7.1	Cc1ccccc1NC(=O)Cc1nc(COC(=O)CSc2ccccc2)cs1
0.77	5.1	6.1	-2.1	i	-1%	/	c1ccc2c(c1)CCN(CCCNc1nc3ccccc3n3cnnc13)C2
0.66	3.3	-3.8	3.2	i	-3%	2.7	CC(OC(=O)c1ccc2c(c1)S(=O)(=O)c1ccccc1C2=O)C(N)=O (centres undefined)
0.73	3.2	2.6	/	/	2%	-1.8	COc1ccc(NC(=O)CSc2nnc(-c3ccccc3)n2Cc2ccco2)c(OC)c1
0.69	-3.0	0.9	2.2	i	0%	-2.2	Cn1c(C(=O)NCc2cccnc2)cc2sc(Cl)cc21
0.66	9.2	-5.0	/	/	/	-0.1	Cc1ccc(/C=C2\SC(=S)N(C(Cc3ccccc3)C(=O)O)C2=O)cc1 (centres undefined)
0.63	-1.0	2.4	/	/	-9%	-0.2	COc1ccc(CN(C(=O)c2cccs2)C(C(=O)NC2CCCCC2)c2ccc3ncccc3c2)cc1 (centres undefined)
0.66	2.3	1.8	/	/	12%	3.3	CC(C)C(=O)Nc1cccc(C(=O)NCc2ccc(S(N)(=O)=O)cc2)c1
0.68	3.1	-1.1	-49	i	-9%	1.1	c1ccc(-c2ccc(-c3nc(-c4ccccn4)no3)cc2)cc1
0.69	3.3	0.8	-0.9	i	/	8.3	CC(=O)N1CCOc2ccc(S(=O)(=O)N(C)c3cccc(C)c3)cc21
0.67	0.8	0.0	-0.6	i	/	1.4	CC(NC(=O)CSc1ccccc1)c1ccccc1 (centres undefined)
0.66	1.2	-1.2	1.2	i	-4%	0.3	Clc1ccc(Nc2ccc(Cl)nn2)cc1
0.74	-0.7	-0.7	/	/	21%	0.6	O=c1c2c3c(sc2nc2n1CCCCC2)CCC3
/	/	0.7	-4.2	i	/	/	O=C(NCc1ccccc1)c1cc(C2COCCN2C(=O)C2CC2)on1 (centres undefined)
0.68	6.2	-1.8	/	/	-3%	-1.2	COc1ccccc1C(=O)N1CCN(C(=O)COc2cccc(C)c2)CC1
0.64	10	16	-2.2	i	/	-6.8	O=C(CCN1C(=O)/C(=C/C=C/c2ccccc2)SC1=S)Nc1cccnc1
0.74	-2.2	-2.0	/	/	25%	?	O=C(CCCn1ncn2c(cc3occc32)c1=O)N1CCc2ccccc2C1
0.63	6.0	8.6	9.8	i	-7%	2.3	COc1ccc(N=N/C(=C\O)C(=O)c2cccs2)cc1
/	/	0.5	1.4	i	/	5.7	Fc1ccc(/C=N\Nc2cccc(F)c2)cc1
/	/	8.2	0.3	i	/	/	CC(=O)Nc1cc(-c2cccc(F)c2)cn2c(-c3ccc(F)c(Cl)c3)cnc12
/	/	-3.9	0.9	i	-6%	0.7	O=C(COC(=O)c1nc(Cl)ccc1Cl)NCc1ccccc1
0.69	3.0	2.7	5.1	i	/	-1.4	Cc1cccc(C(=O)c2c(N)sc3c2CCC(C)C3)c1 (centres undefined)
0.69	-0.7	-2.9	/	/	-21%	3.3	Cc1nn2c(-c3cccc(NC(=O)CSc4nc5ccccc5o4)c3)nnc2c2ccccc12
0.73	2.5	12	/	/	-5%	6.3	O=c1c2c3c(sc2nc2n1N=C(c1cccs1)CS2)CCCC3
0.68	2.5	-1.8	0.6	i	/	0.2	O=C1CCC(C(=O)N2CCSCC2)CN1CCc1cccc(F)c1 (centres undefined)
0.71	-206	0.3	1.7	i	/	-8.6	CCNC(=S)N(CCN(C)C)Cc1cc2cc3c(cc2[nH]c1=O)OCO3
0.63	-29	-31	9.4	i	2%	-2.7	CC(=O)c1ccc2noc(-c3ccc(F)cc3)c2c1
0.71	2.9	1.8	-4.2	i	-8%	2.4	CCOC(=O)c1nnn2c3ccccc3c(=O)n(C)c12
0.69	1.6	2.5	/	/	5%	-0.3	CN(Cc1nc2ccccc2n1C)C(=O)c1cccs1
0.67	0.5	-2.2	-0.9	i	-1%	-7.3	CCOC(=O)N1CCC(N2Cc3cccc(C(=O)Nc4cccc(F)c4)c3C2=O)CC1
0.67	1.3	0.6	0.3	i	-2%	/	CCOc1ccc(NC(=O)CN(C)C(=O)Cn2cnc3c2c(=O)n(C)c(=O)n3C)cc1OCC
/	1.1	/	/	/	4%	-1.0	N[C@@H]1CONC1=O
0.69	1.0	0.1	/	/	?	-0.1	CCCc1nn2c(=O)c(C(c3ccc(C)cc3)c3c(O)nc4sc(CCC)nn4c3=O)c(O)nc2s1

# Going on with the list:
E coli growth	UCH37 DUB inh	HNF4A DNA FP	AF4-AF9 inh	FGF22 binding	Vif A3G	RanGTP-Impb inh	Molecule
0.72	6.7	-0.1	/	/	0%	-2.1	COCCOC(=O)c1c(C)oc2ccc(OC(=O)c3ccc4c(c3)OCO4)cc12
0.66	4.0	2.9	0.3	i	/	3.3	COc1cc(C2C(C#N)=C(N)N(N(C)C)C3=C2C(=O)CCC3)cc(OC)c1OC (centres undefined)
0.68	3.6	-1.6	/	/	?	?	O=c1cc(CSc2nnc(COc3ccccc3)o2)c2ccccc2[nH]1
0.73	1.3	1.0	/	/	2%	3.3	Nc1ccc(SC(F)(F)F)cc1C(=O)c1ccccc1
0.66	2.1	-1.6	-4.8	i	/	-0.6	CC(=O)Oc1ccccc1-c1nc(/C=C/c2ccccc2)no1
0.6	2.7	3.0	-3.1	i	-9%	5.8	O=C(CCC(=O)OCC(=O)c1cccc([N+](=O)[O-])c1)NC1CCCCC1
0.67	5.3	-1.1	/	/	?	0.6	CCC(Oc1ccccc1)C(=O)N1CC(C)CC(C)C1 (centres undefined)
0.63	4.3	3.6	-9.1	i	2%	/	Cc1ccc(NC(=O)COC(=O)c2c(C)nn(-c3ccccc3)c2C)cc1
0.66	2.8	0.8	2.6	i	/	2.1	Cc1cccc2sc(NC(=O)C3CCN(C(=O)c4ccco4)CC3)nc12
0.7	2.8	0.0	1.7	i	-9%	/	CN1CCN(NC(=O)c2cc(-c3ccccn3)nc3ccccc23)CC1
0.66	-0.6	0.5	-1.3	i	-10%	-2.4	CCn1c(Cc2ccccc2)nnc1SCC(=O)Nc1ccccc1F
0.69	4.8	1.2	/	/	0%	4.1	O=C(O)CN1C(=O)SC(Nc2ccc(C(=O)O)cc2)C1=O (centres undefined)
0.72	1.4	-1.7	5.0	i	6%	1.2	COc1ccc(NS(=O)(=O)c2ccc(C)c(C(=O)O)c2)cc1
0.68	6.0	3.7	/	/	1%	-3.5	CCOCC(=O)N1CCc2ccccc21
0.67	-2.0	-3.5	-1.0	i	6%	/	CCOc1ccc(OCCCC(=O)N(C)CC(=O)Nc2ccccc2Br)cc1
0.62	1.9	-0.9	1.8	i	-1%	-0.5	COC(=O)c1cc(C(=O)c2ccc(C(C)(C)C)cc2)c[nH]1
0.72	5.9	-0.9	3.7	i	-5%	/	Cc1ccc(S(=O)(=O)Nc2cccc3c2O[C@H](CN(C)Cc2ccc(-c4ccccc4)cc2)[C@@H](C)CN([C@H](C)CO)C3=O)cc1
0.7	1.9	1.5	-7.4	i	-2%	?	Cn1cc(C(=O)Nc2ccc(C#N)cc2)c2ccccc2c1=O
0.73	3.6	2.3	/	/	6%	-4.5	CCOC(=O)C1=C(C)OC(N)=C(C(=O)OCC)C1c1ccncc1 (centres undefined)
0.67	1.5	0.5	-0.5	/	/	2.0	COc1ccccc1OCc1nnc(SCC(=O)N2CCCC2)o1
0.7	1.8	0.0	/	/	0%	2.7	CCOc1ccc2nc(NC(=O)CN3CCC(n4nnc5cc(C(F)(F)F)ccc54)CC3)sc2c1
0.72	4.3	-4.4	0.3	i	/	-0.7	COc1ccc(C(=O)C2CCCN(C(=O)c3cccc(Cn4cccn4)c3)C2)cc1F (centres undefined)
0.7	-1.2	1.8	-2.1	i	8%	2.4	CC(=O)c1ccc(S(=O)(=O)N2CCN(C(C)=O)CC2)cc1
0.65	-0.6	1.5	-0.9	i	-6%	-2.5	CN(C)C(=O)c1cccn(Cc2cccc(C(F)(F)F)c2)c1=O
0.68	0.9	2.3	0.1	i	0%	-1.7	C(=C\c1ccccn1)/c1ccncc1
0.68	-4.6	-7.1	-12	i	2%	-244	O=C1c2cccc3c(N4CCCCC4)ccc(c23)C(=O)N1c1ccccc1O
0.75	-311	-0.9	/	/	0%	-0.7	COc1ccc2c(c1)c1ncn(CCN3CCCCC3)c(=O)c1n2C
/	/	-1.2	0.1	i	27%	1.3	Cc1cc(C(=O)N/N=C/C=C/c2ccc([N+](=O)[O-])cc2)n[nH]1

# Screening results deposited in PubChem BioAssay by several laboratories.
